Beta apoptosis – beta cell apoptosis inhibition; INS-1E cytokine-induced death, ATP luminescence, 48 h; percent of positive-control rescue, neutral wells zero; protection from apoptosis, % (no concentration beside the values); 300,000 tested, 0.8% active; AID 435005;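 active = all replicates at 75% or more, or half of them and the mean; inconclusive = half reach 75% but not the mean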;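 note: 0% = cytokine-treated negative control wells and 100% = positive control rescue; higher means more ATP so stronger rescue from cytokine killing; wells of about 40 µL received 100 nL stock; the first replicate is given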
ALR inh – inhibitors of human sulfhydryl oxidase ALR | P55789 | purified ALR, DTT oxidation, H2O2 HRP-luminol luminescence | inhibition, % (no concentration beside the values) | 290,000 tested, 3.8% active;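 active = mean and each replicate at 75% or more; inconclusive = only one of the two met; inactive = neither met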;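 note: stock transfer was 7.5 nL into about 7.5 µL; 0% = neutral wells and 100% = wells with inactivated enzyme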
Target sequence (P55789 whole entry, looked up): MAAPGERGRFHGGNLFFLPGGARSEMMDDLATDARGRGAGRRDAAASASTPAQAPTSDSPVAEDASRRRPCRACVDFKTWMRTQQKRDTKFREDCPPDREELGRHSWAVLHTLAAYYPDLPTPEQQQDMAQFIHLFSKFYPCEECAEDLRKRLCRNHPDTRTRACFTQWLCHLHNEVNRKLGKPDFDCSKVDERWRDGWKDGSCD
T cruzi inh – T. cruzi replication inhibition. 300,000 tested, 1.4% active. T. cruzi beta-gal in NIH3T3, luminescence, 90 h. inhibition, % (concentration not given with the values). AID 1885;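 active = mean inhibition across valid replicates above about 55%, limit read from the data; inconclusive = mean below that limit but half or more replicates reach it; inactive = mean below it, under half of replicates reach it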;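 note: signal also drops with host cell toxicity which is not excluded here; 0% = plate median of DMSO wells and 100% = zero luminescence signal; higher percent means less beta-gal luminescence so fewer parasites; stock transfer was 50 nL into about 50 µL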
FGF22 binding – shifts melting point of recombinant human FGF22; recombinant FGF22 thermal shift, SYPRO orange fluorescence; percent of sucrose octasulfate shift, DMSO zero; calls only at 9.99 µM; 340,000 tested, 1.5% active; AID 651658;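 active = melting point raised past a set limit in the mean and every replicate; inconclusive = no clear call; three in four hits are not shown here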
Target sequence (Q9HCT0 whole entry, looked up): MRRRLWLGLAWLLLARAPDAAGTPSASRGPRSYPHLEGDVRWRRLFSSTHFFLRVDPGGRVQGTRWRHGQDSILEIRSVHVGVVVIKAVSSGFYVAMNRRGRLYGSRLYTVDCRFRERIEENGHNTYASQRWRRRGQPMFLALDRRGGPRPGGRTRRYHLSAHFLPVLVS
RanGTP-Impb inh – inhibitors of RanGTP-importin-beta interaction, primary screen, biochemical, FRET, CFP-Ran, YFP-importin-beta, homogeneous; 300,000 tested, 1.1% active; cell-free CFP-Ran/YFP-importin-beta FRET ratio; inhibition, % (test concentration not listed); AID 2216;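 active = most replicates above 15%; inconclusive = exactly half above 15%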;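 note: 0% = DMSO wells and 100% = Ran loaded with GDP instead of GTP; wells of about 40 µL received 100 nL stock; the first replicate is given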
Calb FLC – affects C. albicans growth with fluconazole; 300,000 tested, 0.57% active; C. albicans CaCi-2 (fluconazole-resistant clinical isolate) + fluconazole, Alamar Blue growth, 48 h; growth inhibition, % (no concentration beside the values); AID 1979;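 active = most replicates above 75%; inconclusive = exactly half above 75%; inactive = most below 75%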;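 note: all wells also contain fluconazole at 8 µg/ml as a sub-toxic cotreatment; 0% = median of DMSO wells and 100% = median of geldanamycin control wells; wells of about 8 µL received 7.5 nL stock; the first replicate is given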
AF4-AF9 inh – blocks AF4 peptide binding to human AF9. inhibition, % at 10 µM. AlphaScreen, biotin-AF4 peptide binding to FLAG-AF9. AID 651704. P42568. 350,000 tested, 0.47% active;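 active = every replicate reaching a set inhibition limit, whatever the replicate mean, cut at about 25% in these data; inconclusive = mean inhibition reaches that limit but some replicates miss it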;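 note: 0% = plate neutral control median and 100% = total signal loss; the record names both 10 and 1 µM as test concentration; the first replicate is given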
Target sequence (P42568 whole entry, looked up): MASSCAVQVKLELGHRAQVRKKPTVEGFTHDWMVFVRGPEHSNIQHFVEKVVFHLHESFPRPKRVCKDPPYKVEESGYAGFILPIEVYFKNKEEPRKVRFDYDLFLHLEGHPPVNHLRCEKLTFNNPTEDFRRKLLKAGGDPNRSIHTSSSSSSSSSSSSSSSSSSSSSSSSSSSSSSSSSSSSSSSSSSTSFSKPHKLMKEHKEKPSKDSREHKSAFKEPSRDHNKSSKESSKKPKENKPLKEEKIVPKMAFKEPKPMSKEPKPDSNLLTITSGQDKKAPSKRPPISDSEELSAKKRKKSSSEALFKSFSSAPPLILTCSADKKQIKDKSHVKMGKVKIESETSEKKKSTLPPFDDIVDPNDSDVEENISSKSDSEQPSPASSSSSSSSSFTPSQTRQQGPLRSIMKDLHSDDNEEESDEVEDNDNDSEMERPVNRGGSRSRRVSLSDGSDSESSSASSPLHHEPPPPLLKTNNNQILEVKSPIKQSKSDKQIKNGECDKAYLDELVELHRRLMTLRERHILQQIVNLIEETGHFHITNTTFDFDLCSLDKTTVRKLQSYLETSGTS
rRNA inh HTS – selective bacterial rRNA inhibition in E. coli; E. coli WT GFP vs humanized-ribosome RFP mutants, fluorescence, 24 h; hits give low values; DMSO median 0, no signal -100; GFP signal change (wild-type ribosome), % (concentration not given with the values); 350,000 tested, 1.6% active;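 active = significant combined selectivity score with lowered wild-type GFP, culture density cut under 30%, mutant RFP and density less affected; inactive = any of these conditions unmet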; note: one replicate is shown; some compounds called inactive have numbers as strong as hits
rRNA inh HTS OD600 – recorded beside rRNA inh HTS, whose call it bears; OD600 change, %; measured here: OD600 growth;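 optical density of the mix in the first replicate; 0 = DMSO median and -100 = no signal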
rRNA inh HTS RFP – second read-out of rRNA inh HTS, no call of its own (marks repeat the call); RFP signal change, %; measured here: RFP humanized mutant strains;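 first replicate; 0 = DMSO median and -100 = no signal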
* hit, by the source's call; i = inactive; u = inconclusive; x = not tested or not shown; + = active, no number; & = joins results of further samples. An excerpt (hit frequency here may not be typical).

SMILES	Beta apoptosis	ALR inh	T cruzi inh	FGF22 binding	RanGTP-Impb inh	Calb FLC	AF4-AF9 inh	rRNA inh HTS	rRNA inh HTS OD600	rRNA inh HTS RFP
Cn1c(=O)c2c(SCC(=O)N3CCOCC3)nc(C3CCCCC3)nc2n(C)c1=O	2	18	29	x	2.6	-3	x	x	x	x
CCCCn1c(N)c(N(CCOC)C(=O)COC(=O)C(C)Oc2ccc(Cl)cc2)c(=O)[nH]c1=O (centres undefined)	1	-11	7	i	-1.1	-5	-0.1	1	5	-1.5
CN(Cc1cn(C)nc1-c1ccccc1F)CC1CCN(Cc2ccccc2)CC1	1	3	16	i	-5.0	-10	-1.1	13	11	2.3
Cc1csc(=O)n1CC(=O)Nc1ccc(Cl)cc1F	-4	2	x	i	x	x	-0.3	9	6	6.3
O=C(COc1ccc(S(=O)(=O)Nc2ccccc2)cc1)NCc1ccncc1	0	x	11	+	-0.3	-4	-1.6	3	-6	-2.4
Cc1nn(-c2cccc(Cl)c2)nc1C(=O)Nc1cccc(C(=O)NC2CC2)c1	10	1	x	i	x	x	-0.5	x	x	x
Cc1ccc(S(=O)(=O)Cn2nnnc2C(C(C)C)N2CCC(C(N)=O)CC2)cc1 (centres undefined)	-5	-4	-7	i	-1.8	0	6.5	-3	0	-0.5
COCCn1cnc2c1c(=O)n(CC(=O)c1ccc3c(c1)OCCO3)c(=O)n2Cc1ccccc1	-7	-5	3	i	3.5	-6	-0.1	2	-3	-4.2
COC(=O)[C@]1(Cc2ccccc2)N[C@H](CN(C)C(=O)Nc2ccc(C)cc2)[C@@H]2C(=O)N(C)C(=O)[C@@H]21	-3	x	x	i	x	x	0.9	2	-3	3.2
COC(=O)c1ccc(N2C(=O)CC(N(C)Cc3ccccc3)C2=O)cc1 (centres undefined)	-4	-12	-12	x	1.8	x	x	x	x	x
COc1ccc(C2=CSC3=NCCN23)cc1F	-6	85*	-6	x	u	-7	x	x	x	x
CCCCn1c(N)c(N(CCC(C)C)C(=O)c2[nH]c(C)c(C(=O)OCC)c2C)c(=O)[nH]c1=O	-5	-14	-6	i	3.7	13	-0.8	4	6	-0.1
CS(=O)(=O)Nc1ccc(C(=O)N2CCc3ccccc3C2)cc1	-7	-4	-5	i	-2.0	12	-1.5	6	3	-1.9
COc1ccc(CNc2cccc(C)n2)c(O)c1	-2	56	-6	i	-2.2	-6	-0.8	-3	8	-3.0
COc1ccccc1C(=O)C1CCCN(C(=O)c2cnn(C(C)C)c2)C1 (centres undefined)	-6	1	-6	i	3.5	-6	-2.2	10	8	-0.8
CCN(c1ccccc1)S(=O)(=O)c1ccc(Cl)c(NC(=O)CSc2ncn[nH]2)c1	-6	-1	12	i	-2.6	13	0.4	x	x	x
COc1ccc(N2CCN(C(c3nnnn3C3CCCC3)C(C)C)CC2)cc1 (centres undefined)	-5	-1	10	i	-0.9	-49	3.9	12	2	-3.0
COc1ccc(NC(=O)c2nc3nccc(C)n3n2)cn1	1	-5	-5	x	-0.1	-6	x	x	x	x
COc1cc2c(cc1OC)CN(C(C)C(=O)N1CCc3ccccc31)CC2 (centres undefined)	2	-9	12	x	2.4	x	x	x	x	x
CCn1ncc(C(=O)Nc2ccc(S(=O)(=O)N3CCCC3)cc2)c1C	3	1	-3	x	1.6	-1	x	x	x	x
COc1ccc2c(c1)c1nc3ccccc3nc1n2CC(=O)OC(C)C	20	-2	3	x	-33	5	x	x	x	x
CCCC(=O)N(Cc1cc2ccccc2[nH]c1=O)c1ccccc1OC	-2	-8	7	i	-5.0	1	1.5	10	13	-1.6
COCCNc1nc(C)cc(-c2cc(C(=O)NCc3ccccc3)on2)n1	1	-3	-9	i	-2.1	-2	-0.4	5	2	2.9
Cc1cc(Br)ccc1OCCCCN1CCC(C)CC1	8	-1	53	i	-2.2	13	7.4	8	-14	8.4
COc1ccc(NC(=O)Cc2nnc(N)s2)cc1	-9	-10	-6	i	-3.2	4	-0.1	4	4	-4.6
Cc1cccc(NS(=O)(=O)c2c(C(=O)N3CCOCC3)c(C)n(C)c2C)c1C	-10	-2	-16	i	-5.4	-3	-3.8	6	7	-1.2
COC(=O)c1sc(-c2ccc(Cl)cc2)cc1NC(=O)/C=C/C(=O)O	9	84*	9	i	2.7	16	-6.6	-24	-28	-0.1
Nc1nc(N)nc(-c2ccc(Cl)c(Cl)c2)n1	-16	8	x	i	x	x	-13	-7	3	4.5
O=C(O)c1ccccc1C(=O)N1CCc2c([nH]c3ccccc23)C1C(F)(F)F (centres undefined)	-12	-10	-4	i	1.8	-1	-2.4	-30*	-13*	-1.9*
COc1ccc(-n2nc3c(c2NC(=O)c2ccc(Br)o2)CS(=O)(=O)C3)cc1	2	-25	0	i	-1.4	1	-1.6	3	-4	0.5

Compound profiles (already shown). Order of values: Beta apoptosis, ALR inh, T cruzi inh, FGF22 binding, RanGTP-Impb inh, Calb FLC, AF4-AF9 inh, rRNA inh HTS, rRNA inh HTS OD600, rRNA inh HTS RFP
O=C(O)c1ccccc1C(=O)N1CCc2c([nH]c3ccccc23)C1C(F)(F)F (centres undefined) across the screens: -12, -10, -4, i, 1.8, -1, -2.4, -30*, -13*, -1.9*
CCn1ncc(C(=O)Nc2ccc(S(=O)(=O)N3CCCC3)cc2)c1C across the screens: 3, 1, -3, x, 1.6, -1, x, x, x, x

Next section
SMILES	Beta apoptosis	ALR inh	T cruzi inh	FGF22 binding	RanGTP-Impb inh	Calb FLC	AF4-AF9 inh	rRNA inh HTS	rRNA inh HTS OD600	rRNA inh HTS RFP
C[C@@H]1COC(=O)[C@@H](CC(=O)OC(C)(C)C)C/C=C\C[C@@H](CC(=O)N(CCO)Cc2ccccc2)C(=O)N1	-4	3	x	i	x	x	-5.1	10	9	5.9
CCNC(=O)NC(=O)C(C)OC(=O)c1ccc(-n2nc(SC)sc2=S)cc1 (centres undefined)	0	-21	3	i	u	50	11	4	1	2.0
CC1CC(C)CN(C(=O)Cn2c(-c3nonc3N)nc3ccccc32)C1 (centres undefined)	2	-6	-1	x	4.3	2	x	x	x	x
COc1ccc(C2CC(C(F)(F)F)n3nc(C(=O)NCc4c(C)nn(C)c4C)c(Cl)c3N2)cc1 (centres undefined)	16	-4	-27	x	2.8	4	x	x	x	x
COC(=O)C1=C(C)N(c2ccc(C)c(C)c2)/C(=C/c2cccs2)C1=O	0	3	40	i	4.1	46	3.1	14	20	8.6
CCOC(=O)c1c(CN2CCCCC2)oc2ccc(OC)cc12	8&11	-5&28	11&7	i	-1.8&3.0	-1&-8	-0.4	-2	-6	-0.6
CCCCC(=O)NC(c1ccccc1Cl)c1ccc2cccnc2c1O (centres undefined)	106*	x	51	i	-1.0	5	2.3	6	12	5.8
CC(OC(=O)c1cnc(Cl)c(Cl)c1)C(=O)NCc1ccccc1 (centres undefined)	-2	-4	x	i	x	x	-1.4	2	4	-2.2
CCc1cccc(C)c1NC(=O)COC(=O)c1c2c(nc3ccccc13)/C(=C\c1cccs1)CCC2	13	-10	59*	x	3.9	-7	x	x	x	x
Cc1cccc(/C=C(\C#N)C(=O)Nc2ccccn2)c1	-4	12	3	i	11	16	4.4	-5	7	2.5
CCn1c(=O)c(C(=O)Nc2ccc(C)cc2C)c(O)c2ccccc21	8	-6	-21	x	5.7	-10	x	x	x	x
N#Cc1c(NC(=O)C2CCCO2)sc2c1CCCCC2 (centres undefined)	-2	9	-3	i	-1.0	-1	-5.1	1	-18	-6.2
Cc1cc(C)nc(N(C#N)S(=O)(=O)c2ccccc2)n1	3	-3	-5	x	-1.7	1	x	x	x	x
COc1ccccc1C(=O)NN1C(=O)C2C3C=CC(O3)C2C1=O (centres undefined)	-2	-9	-17	x	5.5	-2	x	x	x	x
COc1ccc(C(c2nnnn2C2CCCCC2)N2CCN(C)CC2)c(OC)c1 (centres undefined)	0	-12	5	i	-2.6	-6	-2.0	4	8	-0.4
COc1ccccc1C1c2c(C)nn(-c3ccccc3)c2NC(=O)C1NC(=O)c1ccccc1 (centres undefined)	-3	2	1	x	-2.7	5	x	x	x	x
CC(Oc1cccc(Cl)c1)C(=O)Nc1ccccc1N1CCCC1 (centres undefined)	1	7	30	i	-3.5	5	2.3	-6	-26	-1.0
CC(C)NC(=O)CSc1c2c(nc3ccccc13)CCCC2	0	76*	23	i	1.1	5	-2.9	6	5	-1.1
COc1ccc(S(=O)(=O)N2CCN(C)CC2)cc1C(=O)N1CCCCC1	0	-4	8	i	-1.4	-22	2.7	14	15	-0.2
O=C(Nc1ccc(S(=O)(=O)Nc2cnc3ccccc3n2)cc1)c1ccc(Cl)c([N+](=O)[O-])c1	-2	x	-8	i	1.5	-3	-1.9	-21	-40	-0.8
NS(=O)(=O)c1ccc(CCNC(=O)CNC(=O)c2ccc(F)cc2)cc1	2	-4	-5	i	1.9	-3	1.0	2	0	-7.4
CN(CC(=O)Nc1ccccc1Cl)CC(=O)Nc1sc2c(c1C(N)=O)CCC2	4	39	-7	i	1.5	17	-4.7	-1	-7	9.3
COc1ccc(NC(=O)CN(C)CCOc2ccc(Cl)cc2)cc1OC	-2	-7	-9	i	-2.5	3	1.4	-9	-16	2.0
O=C(CSc1ncc(S(=O)(=O)c2ccccc2)c(=O)[nH]1)Nc1ccccc1Cl	1	78*	2	i	1.6	-3	-7.8	-30	-42	-22
COc1ccc(OC)c(NS(=O)(=O)c2ccc(Cl)nc2)c1	-2	13	-1	x	3.3	u	x	x	x	x
O=C(c1ccc2c(c1)OCO2)N1CCNc2ccccc2C1	6	9	0	x	2.3	-8	x	x	x	x
Cc1c(C(=O)N(CCc2ccccc2)Cc2ccccc2)cccc1[N+](=O)[O-]	4	0	13	i	-0.1	0	1.2	5	1	-1.2
O=C(NCCc1ccccc1F)C1CC(=O)N(c2ccccc2)C1 (centres undefined)	-5	-7	-16	i	-2.2	1	-2.9	1	4	-0.9
Cn1c(SCC#N)nnc1-c1cnccn1	-6	x	0	x	2.0	4	x	x	x	x
O=C(NCC1(N2CCCCC2)CCCCC1)c1ccc(NS(=O)(=O)c2ccccc2)cc1	-4	-3	-15	i	-0.7	-7	0.0	12	6	2.1
O=Cc1cn(-c2ccccc2)nc1-c1ccccc1	x	6	-4	i	0.3	5	-1.8	1	2	-1.6
S=C(NCCc1ccccc1)NCc1cccc(Cl)c1	3	35	18	x	-1.0	-8	x	-3	-18	0.9
CCOC(=O)c1oc2ccc(Cl)cc2c1NC(C)=O	4	-9	-1	i	-1.5	-3	-0.1	6	1	-3.6
CC(=O)Cn1c(CN2CCCCC2)nc2ccccc2c1=O	-4	0	0	i	1.7	6	0.3	5	4	0.1
CCCn1c2ccccc2c2cnn(CC(=O)NC3CCC(C)CC3)c(=O)c21 (centres undefined)	1	1	-3	i	1.4	-4	-6.4	-5	-4	-2.5
CCc1nnc(NS(=O)(=O)c2ccc(NCc3cc(Br)ccc3O)cc2)s1	-4	41	3	x	u	16	x	x	x	x
Cc1ccc(-n2c(SCC(=O)N3CCOCC3)nc(O)cc2=O)cc1	-3	22	-7	i	0.5	-11	0.3	7	11	-0.1
Cc1cc2oc(C(=O)N3CCN(Cc4ccccc4)CC3)c(C)c2cc1C	-3	-4	2	i	-0.2	-3	x	-46*	-14*	-7.9*
N/C(=N\N=C/c1ccc(Br)cc1)N/N=C\c1ccc(Br)cc1	2	2	40	i	-4.2	-20	1.4	-49	-74	-17
